Screening results (PubChem)
Vaccinia mCherry = vaccinia inhibition (mCherry reporter); Vaccinia virus mCherry reporter infection, fluorescence; about a quarter of the inactives have no number; 310,000 compounds, 0.63% hits; Potency, µM (doses to about 36.5 µM), for inactives: top-dose activity change, negative = inhibition, most hits filed as inhibitors; active = well fitted inhibition curve with a large enough effect; inconclusive = small, poorly fitted or top-dose-only effect; inactive = no such curve, though single readings can be large or run the other way; tested in A549 cells; further: nearly all actives have a fitted effect of over 35% in size; inactives centre near -10
Vaccinia Venus = inhibitors of vaccinia virus (Venus reporter). Vaccinia virus Venus reporter expression, fluorescence. Potency, µM (doses to about 36.5 µM), for inactives: top-dose activity change, negative = inhibition, actives largely listed as inhibitors. 330,000 compounds, 0.46% hits; active means well fitted inhibition curve with a large enough effect; inconclusive means small, poorly fitted or top-dose-only effect; inactive means no such curve, though single readings can be large or run the other way; tested in A549 cells; further: nearly all actives have a fitted effect of over 30% in size; inactives centre near -10
Starred values were filed as active, the others as inactive; i = inactive; ? = inconclusive; . = not tested or not shown. On the % scale 0 is the no-effect control and ±100 the full control effect; potency means the concentration at half of the fitted maximal effect.

Start of the data: the first 6 compounds, to show the layout:
Sequence of screens – Vaccinia mCherry, Vaccinia Venus
> O=C(CCc1ccc(O)c(O)c1)NNC(=S)NCCc1ccccc1
→ -10%, -13%
> COc1ccccc1NC(=O)CSC1=NC(=O)C(NC(C)=O)C(=O)N1 (centres undefined)
→ ., 19%
> Cc1cc(NC(=O)Nc2cccc(Cl)c2)n(C(C)(C)C)n1
→ ?, 3%
> Cc1nc(SCC(=O)Nn2c(-c3ccccc3)nc3ccccc3c2=O)n[nH]1
→ ., -7%
> COc1ccc(-c2cc(C(F)(F)F)n3ncc(C(=O)NCc4ccco4)c3n2)cc1
→ ., -5%
> CCOc1ccc(CCNC(=O)c2cc(=O)[nH]c3ccc(S(=O)(=O)N4CCCCC4)cc23)cc1OCC
→ -9%, 5%

Results, from the first entry:
Sequence of screens – Vaccinia mCherry, Vaccinia Venus
> O=C(CCc1ccc(O)c(O)c1)NNC(=S)NCCc1ccccc1
→ -10%, -13%
> COc1ccccc1NC(=O)CSC1=NC(=O)C(NC(C)=O)C(=O)N1 (centres undefined)
→ ., 19%
> Cc1cc(NC(=O)Nc2cccc(Cl)c2)n(C(C)(C)C)n1
→ ?, 3%
> Cc1nc(SCC(=O)Nn2c(-c3ccccc3)nc3ccccc3c2=O)n[nH]1
→ ., -7%
> COc1ccc(-c2cc(C(F)(F)F)n3ncc(C(=O)NCc4ccco4)c3n2)cc1
→ ., -5%
> CCOc1ccc(CCNC(=O)c2cc(=O)[nH]c3ccc(S(=O)(=O)N4CCCCC4)cc23)cc1OCC
→ -9%, 5%
> CCN(CC)c1nn2c(=O)c(C(=O)NCc3ccc(OC)cc3OC)cnc2s1
→ -13%, -14%
> CCOc1ccc(CCN2C(=O)C(=O)N([C@@H](Cc3ccccc3)CN3CCC[C@H]3CN3C(=O)C(=O)NC[C@@H]3Cc3ccc(O)cc3)C[C@@H]2Cc2ccc(O)cc2)cc1
→ -5%, -2%
> O=C(CCn1ccc2cc(S(=O)(=O)N3CCCC3)ccc21)NCc1ccccc1F
→ 3%, 3%
> CCc1nn2c(=O)c(S(=O)(=O)Nc3ccc(C)cc3C)c(C)nc2s1
→ -8%, -10%
> COc1ccc(NC(=O)c2noc(C(C)C)c2[N+](=O)[O-])cc1
→ i, -20%
> COCCCN=C1NN=C(c2cc(C)n(Cc3ccccc3Cl)c2C)CS1
→ -4%, -28%
> O=C(O)CP(=O)(O)c1ccc(Cl)cc1
→ ., 9%
> CCCCNC(=O)C1(C)CCCCN1C(=O)c1cc(OC)ccc1Br (centres undefined)
→ i, -13%
> O=C(Nc1ccc(Cl)cc1)OC(CN1CCCCC1)C(F)(F)F (centres undefined)
→ ., ?
> CC(=O)N1CCCC1c1nc2ccccc2n1Cc1ccc(F)cc1 (centres undefined)
→ -13%, -1%
> CCn1ccnc1CN(C)C(=O)c1cc(COc2ccc(OC)c3ccccc23)on1
→ ?, -16%
> CC1CCC(NC(=O)C2CCN(S(=O)(=O)c3cccc4nonc34)CC2)CC1 (centres undefined)
→ -18%, -9%
> COc1ccc(C(CNC(=O)c2ccc(NS(=O)(=O)c3ccc(F)c(C)c3)cc2)N2CCOCC2)cc1 (centres undefined)
→ -20%, -13%
> CC(O)Cc1cn(CC(=O)N2CCN(C(=O)OC(C)(C)C)CC2)nn1 (centres undefined)
→ -5%, -3%
> Fc1cccc(CNCC2CCCO2)c1 (centres undefined)
→ -21%, -10%
> CC1Cn2c(nnc2C23CC4CC(CC(C4)C2)C3)S1 (centres undefined)
→ 2%, 16%
> O=C(CSc1nnc(-c2ccc(F)cc2)o1)NC1CCCC1
→ 1%, 7%
> Cc1ccc(S(=O)(=O)NCCCNC(=O)OCc2ccccc2)cc1
→ -26%, -23%
> Cc1ccc(NC(=O)Cc2ccc(F)cc2)cc1
→ -5%, -24%
> CCOc1ccc(C(=O)Nc2cccc(C)n2)cc1
→ -20%, -19%
> CCNc1nc(NC(C)C)nc(N(C#N)C(C)C(=O)N(C)C)n1 (centres undefined)
→ 0%, -3%
> Cc1ccc(-c2cc(C(=O)NCCc3ccccn3)c3ccccc3n2)c(C)c1
→ -3%, -15%
> COC(=O)C1CC2=C(CCCC2=O)N(c2ccccc2)C1=O (centres undefined)
→ -7%, -11%
> O=C(Cc1ccc([N+](=O)[O-])cc1)NCCc1ccc2c(c1)OCO2
→ -3%, -7%
> Cc1c(NC(=O)CSc2nnc(N)s2)c(=O)n(-c2ccccc2)n1C
→ -6%, -3%
> COc1ccc(C(CC(=O)N2CCOCC2)C(C)C)cc1 (centres undefined)
→ -2%, 11%
> CC(=NCC1CCCO1)C1=C(O)CC(C)(C)CC1=O (centres undefined)
→ -12%, 7%
> Cc1ccc(NC(=O)c2cc(S(=O)(=O)N3CCOCC3)cn2C)cc1F
→ 10%, -8%
> Cc1ccc(N=Cc2sc(O)c3ccccc23)c(C)c1
→ -6%, -30%
> COc1ccc(NC(=O)c2ccc(Br)c(S(=O)(=O)N3CCOCC3)c2)cc1
→ i, -16%
> C=CCn1c(SCC(=O)N2CCCCC2)nc(O)cc1=O
→ i, -6%
> Cc1ccc(C)c(NC(=O)CSc2ncc(S(=O)(=O)c3ccc(C)c(Cl)c3)c(=O)[nH]2)c1
→ 0%, 7%
> O=C(c1ccc(F)cc1)N1CCN(c2ccc([N+](=O)[O-])c(N3CCOCC3)c2)CC1
→ -3%, -18%
> O=C(Cc1cccs1)NCCc1ccc(F)cc1
→ i, 1%
> CCOC(C[n+]1c(-c2ccccc2)cc(C)cc1-c1ccccc1)OCC
→ ?, -8%
> COc1cc(C)nn1-c1ccc(Cl)cc1
→ -19%, -15%
> N#CC1=C2SCN(Cc3ccccc3)CN2C(=O)CC1c1cccs1 (centres undefined)
→ i, -5%
> Cc1cc(NC(=O)Cn2nc(C)n3cccc3c2=O)ccc1Br
→ -15%, -16%
> Cc1cc(C)cc(-n2ncc3c2CCCC3NC(=O)CCN2Cc3ccccc3C2=O)c1 (centres undefined)
→ -29%, -28%
> CC(=O)c1ccc(NC(=O)C2(c3ccccc3)CCOCC2)cc1
→ -3%, 1%
> COCC(=O)N[C@H]1CC[C@@H](CC(=O)NCc2ccccc2OC)O[C@@H]1CO
→ i, -8%
> O=C(Cn1c(=O)n(-c2ccccc2)c(=O)c2c3c(sc21)CCCC3)Nc1ccc(F)cc1
→ -7%, -9%
> COc1ccc(C(=O)C2CCN(C(=O)c3ccco3)CC2)cc1
→ -15%, -7%
> CCCC(=O)C1=C(O)C(C(=O)OC)C(C)(C)CC1=NCCc1ccccc1 (centres undefined)
→ i, -10%
> COc1ccc2[nH]c3c(c2c1)CCN1C(=O)N([C@@H](C)C(=O)NCc2ccccc2OC)C(=O)[C@]31C
→ -13%, -6%
> CN(C)c1ccc(/C=C/C(=O)c2ccccc2)cc1[N+](=O)[O-]
→ 1%, -6%
> COc1ccccc1S(=O)(=O)Cc1ccc(C(=O)NCc2cccnc2)o1
→ -10%, -1%
> CC(=O)c1cccc(NC(=O)C2CCN(S(=O)(=O)c3c(C)n[nH]c3C)CC2)c1
→ -12%, -7%
> CCOC(=O)C1=C(c2ccccc2)c2ccc(OC)cc2N(S(=O)(=O)C(F)(F)F)C1C(=O)OCC (centres undefined)
→ -2%, -24%
> CC(OC(=O)CNC(=O)c1ccc(Cl)c(Cl)c1)C(=O)N1CCOCC1 (centres undefined)
→ i, -22%
> COc1ccccc1CN1CCOc2ccc(C(C)(O)CN(C)C)cc2C1 (centres undefined)
→ -3%, -13%
> COc1ccccc1CNC(=O)CCn1cnc2ccccc2c1=O
→ i, 4%
> CC1CCCCN1C(=O)NC1CC(=O)N(c2ccc3c(c2)OCCO3)C1 (centres undefined)
→ i, -14%
> CC1=C(C(=O)OC(C)C)C(/C=C/c2ccccc2)NC(=O)N1 (centres undefined)
→ ., -9%

Following part
Sequence of screens – Vaccinia mCherry, Vaccinia Venus
> CCCCCc1nnc(NC(=O)Cc2ccc([N+](=O)[O-])cc2)s1
→ i, 16%
> CS(=O)(=O)N1CCC(C(=O)NCC2CCCO2)CC1 (centres undefined)
→ -12%, 1%
> O=C(NCCCN1CCOCC1)c1coc2ccccc2c1=O
→ -3%, 11%
> C[C@H](NS(=O)(=O)c1ccccc1)C(=O)N1CCN(C(c2ccccc2)c2ccccc2)CC1
→ -18%, -24%
> Cc1cccc(C(=O)Nc2nnc(-c3cccnc3)o2)c1
→ i, -7%
> CCc1cc2c(=O)nc3n(c2s1)Cc1ccccc1/C3=C(/O)c1ccccc1Cl
→ i, 8%
> Cc1cccc(NC(=O)c2ccc3c(c2)C(=O)N(c2ccccn2)C3=O)c1C
→ -16%, -11%
> O=C(CC(NC(=O)c1ccccc1Cl)c1ccccc1)NC1=NCCS1 (centres undefined)
→ i, 1%
> COc1ccc(C(=O)Nc2cccc(-c3nc4ncccc4o3)c2C)cc1
→ ., -14%
> O=C(CCc1ccc(Oc2cc([N+](=O)[O-])cc([N+](=O)[O-])c2)cc1)N1CCCCC1
→ -3%, -16%
> CC(=O)OC(C(=O)NCc1ccc(F)cc1)c1ccccn1 (centres undefined)
→ ., -2%
> CCn1nc(C)c(CNC(=O)c2cc(COc3ccccc3SC)on2)c1C
→ -13%, -10%
> CCOc1cc(/C=C2/COc3ccccc3C2=O)ccc1OCC(=O)N(C)C
→ i, -9%
> COc1ccc(NC(=O)N(C)C[C@H]2OCc3cn(nn3)CCCC(=O)N([C@@H](C)CO)C[C@@H]2C)cc1
→ -2%, -7%
> Cc1nc2cc(NC(=O)NCc3ccco3)ccc2o1
→ i, -2%
> COc1ccc(C2C(C(=O)N3CCC4(CC3)OCCO4)CC(=O)N2c2ccc(OC)cc2)cc1 (centres undefined)
→ -11%, -12%
> COc1ccccc1N1CCN(c2ncc3c(n2)CCN(Cc2ccccc2F)C3)CC1
→ -9%, -15%
> O=c1c2ccccc2sn1-c1ccc(Cl)cc1
→ -22%, ?
> Cc1nc(-c2ccc(F)cc2)c(CC(=O)Nc2ccc(C)c(S(=O)(=O)N3CCOCC3)c2)s1
→ i, -5%
> CCC(C(=O)OCC(=O)Nc1cccc(OC)c1)c1ccccc1 (centres undefined)
→ i, -6%
> CCc1c(O)nc(SCC(=O)N2CCc3cc(OC)c(OC)cc3[C@@H]2C)[nH]c1=O
→ -4%, 7%
> COC(C[C@@H](O)[C@@H](C)[C@@H](O)COCc1ccccc1)OC
→ -18%, 13%
> O=c1[nH]c(O)c(N=Nc2ccc(Cl)c(S(=O)(=O)Nc3ccccc3Cl)c2)c(=O)[nH]1
→ i, -8%
> COc1cc(/C=C2/NC(=O)N(Cc3ccccc3F)C2=O)cc(OC)c1OC
→ i, -7%
> Cc1nnc(SCC(=O)N/N=C/c2cn(-c3ccccc3)nc2-c2ccc(F)cc2)n1-c1ccccc1
→ ., -11%
> O=C(NCCc1ccc(Cl)cc1)C1CCN(c2ncnc3c2nc2n3CCCCC2)CC1
→ -19%, -9%
> COc1ccc(CNC(=O)[C@@H]2CC=C[C@@H]3CCN(Cc4ccc(OC)c(OC)c4)C(=O)[C@@H]32)cc1
→ -4%, -13%
> CCCn1c(SCC(N)=O)nnc1C(C)C
→ -10%, -5%
> CN(CCNC(=O)C1CCC(=O)N(Cc2cccc(F)c2)C1)CCc1ccccc1 (centres undefined)
→ -5%, -20%
> CN(CC(=O)Nc1ccccc1Cl)C(=O)C1CCN(C(=O)c2ccc(Cl)cc2)CC1
→ -12%, -10%

A draw from above in order of length of the SMILES, rising:
Sequence of screens – Vaccinia mCherry, Vaccinia Venus
> CCn1nc(C)c(CNC(=O)c2cc(COc3ccccc3SC)on2)c1C
→ -13%, -10%
> COc1ccccc1N1CCN(c2ncc3c(n2)CCN(Cc2ccccc2F)C3)CC1
→ -9%, -15%
> Cc1cccc(NC(=O)c2ccc3c(c2)C(=O)N(c2ccccn2)C3=O)c1C
→ -16%, -11%
> CN(CC(=O)Nc1ccccc1Cl)C(=O)C1CCN(C(=O)c2ccc(Cl)cc2)CC1
→ -12%, -10%
> Cc1nnc(SCC(=O)N/N=C/c2cn(-c3ccccc3)nc2-c2ccc(F)cc2)n1-c1ccccc1
→ ., -11%
> COc1ccc(NC(=O)N(C)C[C@H]2OCc3cn(nn3)CCCC(=O)N([C@@H](C)CO)C[C@@H]2C)cc1
→ -2%, -7%

Continued.
Sequence of screens – Vaccinia mCherry, Vaccinia Venus
> CC(NC(=O)NC(=O)c1cccc([N+](=O)[O-])c1)C1CC1 (centres undefined)
→ -26%, 0%
> CC(C)Oc1cccc(C(=O)C2CCCN(C(=O)c3noc4c3CCCC4)C2)c1 (centres undefined)
→ i, -15%
> CC(=O)N1CCOc2ccc(S(=O)(=O)NCC3CCC(C(=O)Nc4ncccc4C)CC3)cc21 (centres undefined)
→ i, -9%
> O=C(N/N=C/C=C/c1ccccc1)c1ccccc1Br
→ -19%, -3%
> CCOc1ccccc1NC(=O)c1ccc2c(c1)CCCN2S(C)(=O)=O
→ -14%, -14%
> Cc1ccc(C(=O)/C=C/Nc2ccc(S(=O)(=O)Nc3cc(C)nc(C)n3)cc2)cc1
→ -22%, -8%
> COc1cc(C(=O)Nc2nccs2)ccc1OCc1c(C)noc1C
→ ?, -23%
> COC(=O)N1C(=O)[C@](c2ccccc2)(C2CCCC2)N1C(=O)OC
→ -27%, -28%
> O=C(CCC1CCCN(C(=O)c2ccc(F)c(F)c2)C1)N1CCN(c2ccccn2)CC1 (centres undefined)
→ i, -13%
> CC1=CC(=O)OC1Cc1ccncc1 (centres undefined)
→ ., -8%
> CCOC(=O)c1ccc(NC(=O)Cn2nc(SC)c(S(=O)(=O)c3ccc(Cl)cc3)c2N)cc1
→ ?, ?
> Cc1c2cnn(CC(=O)NCc3ccccn3)c(=O)c2c(C)n1Cc1ccccc1
→ i, -6%
